Screening data from PubChem BioAssay.
Marburg entry inh: inhibitors of Marburg virus binding or cell entry. Marburg virus pseudotyped entry inhibition, cell reporter; control for the full effect not named in the record; about a third of the inactives were read at about 46 µM. Potency, µM (top dose mostly 37.8 µM), without a hit: top-dose activity change, negative = inhibition, actives largely listed as inhibitors. 300,000 tested, 1.8% active. AID 540276; active = well fitted inhibition curve with a large enough effect; inconclusive = small, poorly fitted or top-dose-only effect, or effect the other way; inactive = flat fitted curve, though single readings scatter; tested in HEK293 cells; about a fifth of its hits are not listed in these tables; note: % is set by controls: 0 for no effect and ±100 for the full control effect; luciferase read-out
Cruzain noTriton: blocks cruzain activity in detergent-free assay | AID 1476 | purified cruzain, Z-FR-AMC fluorescence, no detergent | P25779 | Potency, µM, inactives show max response, negative = inhibition, actives largely listed as inhibitors | 200,000 tested, 2.3% active; active = well fitted curve in the direction sought with a large enough effect; inconclusive = small, poorly fitted or top-dose-only effect, or another doubt; inactive = no such curve, though single readings can be large; an effect the other way counts as inactive or inconclusive;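 note: plate controls were enzyme without inhibitor for no effect and buffer without enzyme for full effect; nearly all actives have a fitted effect of over 40% in size; top concentration of the series not given in the record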
Target sequence (P25779 123-467 limits assumed): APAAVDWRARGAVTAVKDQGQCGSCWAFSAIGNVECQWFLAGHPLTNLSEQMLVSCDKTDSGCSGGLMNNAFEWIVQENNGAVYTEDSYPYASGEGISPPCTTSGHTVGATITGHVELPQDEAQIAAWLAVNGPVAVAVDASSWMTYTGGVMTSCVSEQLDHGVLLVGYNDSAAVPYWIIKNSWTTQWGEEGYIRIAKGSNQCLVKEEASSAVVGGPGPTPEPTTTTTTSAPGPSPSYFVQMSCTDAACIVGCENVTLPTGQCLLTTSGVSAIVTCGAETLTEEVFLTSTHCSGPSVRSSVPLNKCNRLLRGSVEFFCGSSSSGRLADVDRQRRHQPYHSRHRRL
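Purified cruzain at 1.5 nM, pre-incubated 15 min with compound at room temperature in 100 mM sodium acetate pH 5.5, 5 mM DTT, 0.00005% Triton X-100. Reaction started with 2 uM Z-FR-AMC; AMC fluorescence increase over 60 s gives rate.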
Cruzain Triton: inhibitors of Trypanosoma cruzi cruzain with detergent; purified cruzain, Z-FR-AMC fluorescence, 0.01% Triton; Potency, µM, inactives show max response, negative = inhibition, most hits filed as inhibitors; P25779; 200,000 tested, 0.43% active; active = well fitted curve in the direction sought with a large enough effect; inconclusive = small, poorly fitted or top-dose-only effect, or another doubt; inactive = no such curve, though single readings can be large; an effect the other way counts as inactive or inconclusive;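 note: plate controls were neutral wells for no effect and buffer without enzyme for full effect; nearly all actives have a fitted effect of over 40% in size; top concentration of the series not given in the record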
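Enzyme 1.5 nM, Z-FR-AMC 2 uM, NaOAc 100 mM pH 5.5, DTT 5 mM, Triton X-100 0.01%; 15 min RT compound preincubation; kinetic ex360/em450, 60 s delta.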
RE007 growth inh: less growth of the S. pombe RE007 Vpr strain. S. pombe RE007 Vpr strain, BacTiter-Glo ATP luminescence, 24 h; control for the full effect not named in the record. Potency, µM (series often up to 92.2 µM), without a hit: at the highest dose activity change, negative = less growth. 360,000 tested, 0.21% active; active = well fitted falling curve with a large enough effect; inconclusive = small, poorly fitted or top-dose-only effect; inactive = no such curve, though single readings can be large or run the other way;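 note: % is set by controls: 0 for no effect and ±100 for the full control effect; nearly all actives have a fitted effect of over 50% in size; the assay follows cell death caused by Vpr and the record does not say whether a fall means rescue or toxicity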
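Fission yeast strain RE007, carrying one chromosomally integrated HIV-1 vpr copy, was seeded at OD 0.01 in PMG+AL medium with 23 nL pinned compound. After 24 h at 30 °C and 99% humidity, viability was read by BacTiter-Glo luminescence.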
SARS PLpro yeast: inhibitors of SARS-CoV papain-like protease in yeast; S. cerevisiae expressing SARS-CoV PLpro, growth rescue; control for the full effect not named in the record; Potency, µM (doses to about 32.9 µM), without a hit: top-dose activity, positive = growth rescue; 330,000 tested, 0.19% active; note: 0% is about no effect; nearly all actives have a fitted effect of over 55% in size; growth read by luminescence after 48 h
StopGo reporter: FMDV 2A StopGo reporter, luciferase signal; human cells with a luciferase reporter of 2A StopGo recoding; control for the full effect not named in the record; Potency, µM (series often up to 57.9 µM), for inactives: top-dose signal change, negative = less light; 410,000 tested, 1.2% active; AID 1159524; active = well fitted falling curve with a large enough effect; inconclusive = small, poorly fitted or top-dose-only effect; inactive = no such curve, though single readings can be large or run the other way; tested in HEK293T cells; note: % is set by controls: 0 for no effect and ±100 for the full control effect; nearly all actives have a fitted effect of over 45% in size; luciferase light after 4 h
LASV entry inh: blocks Lassa virus binding to or entry into cells. Lassa virus pseudotype entry inhibition, cell reporter; control for the full effect not named in the record. Potency, µM (highest dose often 37.9 µM), inactives show at the highest dose activity change, negative = inhibition, hits mostly inhibitors. 300,000 tested, 1.2% active. AID 540256; active means well fitted inhibition curve with a large enough effect; inconclusive means small, poorly fitted or top-dose-only effect, or effect the other way; inactive means flat fitted curve, though single readings scatter; tested in HEK293 cells; note: % is set by controls: 0 for no effect and ±100 for the full control effect; nearly all actives have a fitted effect of over 50% in size; luciferase read-out
NS1 function inh: influenza NS1 inhibition | S. cerevisiae slowed by influenza A NS1, growth recovery by OD600 | Potency, µM (doses to about 46.1 µM), for the others: top-dose activity, positive = more growth | 270,000 tested, 0.4% active; note: actives are rising curves; nearly all actives have a fitted effect of over 50% in size
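Recovery from NS1-induced slow growth read by OD600 in budding yeast switched to galactose assay medium (pH 6.0, -URA) at 1:100 dilution. Compound 23 nl per well; the matching strain lacking NS1 serves as control.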
* hit, by the source's call; ? = inconclusive; / = no result given; & = joins results of further samples; [ ] = another dose, or the depositor's remark. Unless noted, calls come from the whole dose curve; as a rule, active means well fitted rising curve with a large enough effect; inconclusive means small, poorly fitted or top-dose-only effect; inactive means no such curve, though single readings can be large or run the other way. Potency is the fitted concentration of half-maximal effect.

SMILES	Marburg entry inh	Cruzain noTriton	Cruzain Triton	RE007 growth inh	SARS PLpro yeast	StopGo reporter	LASV entry inh	NS1 function inh
N/C(=N\OC(=O)CC1CCCCC1)c1ccc(Cl)cc1	1%	/	/	-14%	-8%	61%[activator]	-2%	-23%
Cc1cc(CNC(=O)Cc2ccccc2)c2ccccc2n1	-22%	/	/	-22%	2%	30%[activator]	0%	/
COc1cc(C(=O)NCCC(=O)NCCCN2CCCCC2C)cc(OC)c1OC (stereo not given)	?	-15%	2.3%	-1%	6%	20%	14%	3%
CCC(=O)Nc1nc(=S)ss1	?	0%	2.7%	-1%	14%	-13%	?	-8%
O=C(NCCCN1CCN(Cc2ccccc2)CC1)c1nnc(Cc2c(F)cccc2Cl)o1	-1%&-1%	2%	2.9%	-10%	-1%	-24%	-12%	19%
CCOC(=O)c1c(S(=O)(=O)NCC(=O)Nc2cc(C)ccc2OC)c(C)n(C)c1C	/	13%	0.9%	5%	-2%	47%&3%[activator]	-6%[46.1 µM]	0%
COc1ccc(-c2ncc(CN3CCC(CO)(Cc4cccc(OC)c4)CC3)cn2)cc1	/	/	/	-3%	0%	-23%	/	-2%
C[C@@H]([C@H](O)c1ccccc1)N(C)C(=S)Nc1ccccc1	/	/	/	-4%	-1%	-24%	/	10%
O=C(CN(Cc1cccs1)C(=O)CSc1nnc(COc2ccccc2)o1)NC1CCCCC1	?	6%	-3.0%	17%	-3%	40µM*	?	6%
CCN(CC)C(=S)SCC(=O)c1ccc(F)cc1	?	-6%	-7.0%	-11%	11%	62%[activator]	-15%	0%
COc1cccc(OC)c1OCC(O)CN1CCN(c2ccc(F)cc2)CC1 (stereo not given)	-23%[46.1 µM]	/	/	-6%	-1%	-20%	?	6%
Cc1ccc(CSc2nc(-c3cccs3)ccc2C#N)cc1	-24%[46.1 µM]	25µM*	-2.8%	/	/	4%	-4%[46.1 µM]	/
COc1cccc(NC(=O)c2oc3ccccc3c2NC(=O)C23CC4CC(CC(C4)C2)C3)c1	?	-11%	-0.2%	/	/	8%	16%[46.1 µM]	/
O=C(COc1ccccc1F)NNC(=O)c1ccc(N2CCCCC2)c([N+](=O)[O-])c1	5%	-11%	-12%	12%	0%	-28%	9%	12%
O=C(NCc1cccc(C(F)(F)F)c1)c1ccc2c(c1)OCCO2	9%[46.1 µM]	/	/	3%	-10%	19%	-1%[46.1 µM]	-23%
CS(=O)(=O)N1CCN(c2ccnc3cc(Cl)ccc23)CC1	5%	/	/	2%	1%	-14%	-13%[46.1 µM]	/
Cc1cc2ncc(C(N)=O)cn2n1	-19%[46.1 µM]	/	/	23%	0%	-13%	24%	4%
CCc1cccc(CC)c1NC(=O)COC(=O)CC1c2ccccc2CCN1S(=O)(=O)c1ccccc1 (stereo not given)	?	0%	-5.9%	14%	-5%	-27%	-3%	18%
COc1ccc(C(C)(C)C)cc1NC(=O)C1CC(=O)N(C2CCCC2)C1 (stereo not given)	-27%	/	/	0%	-2%	?	-2%	/
COC(=O)C1=CNC=C(C(=O)OC)C1c1ccc(Cl)cc1	?	3%	-22%	5%	3%	-5%	5%	-3%
CC(OC(=O)CN(C)S(=O)(=O)c1ccc(Cl)cc1)C(=O)Nc1ncc(Cl)cc1Cl (stereo not given)	-5%	10%	-2.0%	0%	-9%	-21%	6%	-20%
CCOC(=O)c1ccc(N2C(=O)c3n[nH]c(C)c3C2c2ccc(OC)cc2OC)cc1 (stereo not given)	?	?	-11%	14%	10%	?	?	5µM*
CCC(C)Cn1c(S(=O)(=O)O)nc2ccccc21 (stereo not given)	8%	2%	-0.5%	1%	3%	6%	16%	13%
COc1ccccc1C(CNC(=O)c1cccc(S(=O)(=O)Nc2ccc(C)cc2)c1)N(C)C (stereo not given)	?	/	/	-10%	-2%	7%	-16%	3%
O=C(COc1ccc2c3c(c(=O)oc2c1)CCC3)Nc1ccc(CN2CCOCC2)cc1	/	/	/	-8%	0%	-17%	/	-1%
Cc1ccccc1NC(=S)NC1(C)CCS(=O)(=O)C1 (stereo not given)	-8%	-2%	1.5%	-1%	17%	-8%	-4%	8%
Cc1ccc(C)c(Cn2c3ccccc3c3cnn(CC(=O)NCC(C)c4ccccc4)c(=O)c32)c1 (stereo not given)	5%[46.1 µM]	2%	-1.2%	/	/	-18%	?	/
Cc1cc(NC(=O)CN2C(=O)NC(C)(CCc3ccccc3)C2=O)no1 (stereo not given)	19%[46.1 µM]	/	/	-5%	-1%	6%	6%[46.1 µM]	/
CCC(C(=O)Nc1ccccc1Cl)n1nc(C)c2c(C)n(-c3ccccc3)nc2c1=O (stereo not given)	?	/	/	22%	-1%	-10%	2%[46.1 µM]	8%
Cc1cc(SCC(=O)OCC(=O)c2c(N)n(C)c(=O)n(C)c2=O)c(C)cc1Br	3%	/	/	-8%	-5%	7%	-3%	/
O=C(COc1ccc(F)cc1)Nc1ccc2nc(SCC(=O)N3CCOCC3)sc2c1	?	?	-9.2%	/	/	?	-10%[46.1 µM]	/
COc1cccc(NC(=O)N2CCCC(C(=O)NC3CCCCC3C)C2)c1 (stereo not given)	0%[46.1 µM]	/	/	1%	16%	29%	5%	8%
CC(=O)c1ccc(NS(=O)(=O)c2ccc(N/C=C/C(=O)c3ccc(F)cc3)cc2)cc1	/	/	/	7%	0%	10%	/	-41%
O=C(O)c1ccc(/C=N/NC(=O)c2cc(-c3ccc4c5c(cccc35)CC4)n[nH]2)cc1	16%[46.1 µM]	/	/	-13%	0%	42%[activator]	13%[46.1 µM]	-14%
CC1CCc2cc(F)ccc2N1C(=O)CSc1nnc2c(n1)[nH]c1ccccc12 (stereo not given)	?	2%	-8.8%	26%	18%	?	?	13%
CCOc1ccc(/C=N/NC(=O)c2[nH]ncc2Br)c(O)c1	6.5µM*	/	/	?	-2%	-39%	1.8µM*	-31%
CCC(C(=O)NC1CCCCCC1)n1nc(C)n2c(cc3occc32)c1=O (stereo not given)	/	/	/	-5%	1%	11%	/	4%
CC(=O)NC(CCCCNC(=S)NC1CCCCC1)C(=O)O (stereo not given)	?	/	/	-16%	-1%	-8%	24%	5%
COc1ccc(CCNc2ncnc3c2c(-c2ccccc2)cn3-c2ccc(F)cc2)cc1OC	/	?	1.2%	/	/	?	?	/
CC(C)(C)C(O)(CC#CCN1CCCC1)c1ccccc1 (stereo not given)	-26%[46.1 µM]	/	/	12%	-2%	-20%	-26%	1%
CCOC(=O)c1cnn(Cc2ccc(C)cc2)c1N	?	/	/	-7%	0%	-8%	2%[46.1 µM]	/
Cn1c(N)c(C(=O)CSc2nnnn2-c2ccccc2)c(=O)n(C)c1=O	/	/	/	2%	0%	1%	/	6%
CN(CC(=O)Nc1ccc(F)c(F)c1F)C(=O)C1=COCCO1	/	/	/	-1%	4%	-28%	/	-8%
Cc1cnc(C(=O)OCC(=O)N2CCC(C)CC2)cn1	14%	/	/	-9%	-1%	6%	?	/
COc1ccc(N2CCN(Cc3nc4c(c(=O)n(C)c(=O)n4C)n3C(C)C)CC2)cc1	/	3%	0.8%	/	/	?	-1%[46.1 µM]	/
COc1ccc(Cl)cc1N1CC(c2nc3ccccc3[nH]2)CC1=O (stereo not given)	/	-2%	-3.7%	-7%	-15%	-26%	/	-7%
COc1cc(OC)nc(Oc2ccccc2C(=O)Oc2ccc(Cl)cc2)n1	/	3%	-0.5%	6%	-28%	-23%	/	-49%
O=S(=O)(c1ccc(OCC(O)CN2CCC(Cc3ccccc3)CC2)cc1)N1CCOCC1 (stereo not given)	?	10%	1.3%	-2%	1%	/	-4%	-10%
CCn1c(=O)c2sccc2n2c(CCCC(=O)N3CCN(c4ccccc4OC)CC3)nnc12	/	-1%	-0.5%	/	/	-5%	0%[46.1 µM]	/
COC(=O)C(CCSC)NC(=O)c1cc2c(n(-c3ccccc3)c1=O)CC(C)(C)CC2=O (stereo not given)	13%[46.1 µM]	20%&16%	-6.0%&-5.4%	1%	5%	-10%&-7%	19%[46.1 µM]	-1%
Cc1ccccc1SCC(=O)OCC(=O)NCCNC(=O)COC(=O)CSc1ccccc1C	-2%[46.1 µM]	/	/	-4%	1%	6%	-8%	/
CCOC(=O)c1ccc(N2CCN(c3ccccc3F)CC2)c(NC(=O)Nc2cccc(OC)c2)c1	?	?	-4.7%	2%	0%	?	?	?
COc1ccc(NC(=O)NNC(=O)c2cc3ccccc3cc2O)cc1	/	/	/	-15%	-2%	3%	/	10%
Cc1ccc(C(=O)N/C(=C\c2cccs2)C(=O)NCCc2ccccn2)cc1C	?	/	/	17%	-1%	3%	2%	/
CC(C)OCCCNC(=O)c1ccncc1	2%	9%	1.3%	8%	1%	1%	23%[14.3 µM]	-1%
COc1cccc(CN2CCN(CCc3ccccc3)C(CCO)C2)c1OC (stereo not given)	/	/	/	-1%	1%	?	/	0%
O=C(O)C(C(=O)Oc1ccccc1)C(C(=O)O)C(=O)Oc1ccccc1 (stereo not given)	4%	/	/	8%	-1%	-12%	1%	/
CC(C)c1ccc(NC(=O)CN2C(=O)COc3ccc(S(=O)(=O)Nc4ccccc4)cc32)cc1	/	20µM*	-7.7%	/	/	13%	-6%[46.1 µM]	/
Clc1ccc(OCCCc2nc(-c3ccncc3)no2)c(Cl)c1	-8%[46.1 µM]	6%	-4.5%	0%	-29%	?	-3%	-187%
Nc1nnc(SCC(=O)Nc2cccc(S(=O)(=O)N3CCOCC3)c2)s1	-1%	/	/	2%	-3%	6%	6%	/
Cc1ccccc1C(=O)Nc1ccc(C(=O)N/N=C/c2ccccn2)cc1	4%[46.1 µM]	/	/	8%	4%	0%	10%[46.1 µM]	-6%
CN(Cc1ccccc1)c1ccc(C(CC(N)=O)NC(=O)c2ccccc2)cc1[N+](=O)[O-] (stereo not given)	/	/	/	-5%	2%	?	/	-5%
